Screens deposited in PubChem BioAssay by ICCB-Longwood Screening Facility, Harvard Medical School.
Bm FixLJ act: increases Burkholderia fixLJ two-component signaling. B. multivorans fixK-promoter GFP reporter, 18 h; active compounds read high. z-score (test concentration not listed). actives 0.3% (n = 29,000). AID 1918990;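 active = replicate mean overnight rise in green fluorescent reporter signal, 3 or more SD over negative controls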;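 also: score is relative to vehicle wells of the plate; 300 nL library stock went into each well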
An asterisk follows results filed as active; & = joins results of further samples.

smiles | Bm FixLJ act
O=C(O)Cn1c(-c2cccs2)cc2cc(Cl)ccc21 | 0.06
COc1ccc(Cn2nnc3c(=O)[nH]c(C4CCN(C(=O)c5ccc(C)cc5)CC4)nc32)cc1OC | -1.02
O=C(Nc1ccccc1)c1cc2n(n1)CCN(C(=O)CCn1cnnn1)C2 | 0.34
Cc1cc(N2CCCCC2)nc2ccc(NC(=O)c3cccc(F)c3)cc12 | 1.19
O=C(Nc1onc2c1CCCC2)c1ccccc1 | 0.72
Cc1cc(NC(=O)CN(C)S(=O)(=O)c2ccc3c(c2)CCC(=O)N3)ccc1Br | -2.33
O=C(CCCn1cncn1)NC1COCC1Cc1ccnc2ccccc12 (stereo not given) | 0.68
Cc1cc(NC(=O)c2ccc(Cl)c(Cl)c2)ccc1-c1cc2ccccc2oc1=O | 0.83
Cc1ccc(S(=O)(=O)NCCCNC(=O)Cc2c(C)[nH]c3ccc(F)cc23)cc1 | -1.38
O=C(c1ccco1)n1nc(-c2ccccc2)nc1NCc1ccc(F)cc1 | -0.89
Cn1c(=O)c2c(ncn2CC(=O)Nc2cccc(C(F)(F)F)c2)n(C)c1=O | -2.11
Cc1ccc(C(=O)NC2COCC2Cc2ccncc2)cc1C (stereo not given) | -1.44

The list continues:
smiles | Bm FixLJ act
CCCCCC(=O)Nc1ccc(NC(=O)c2cc3ccccc3o2)c(OC)c1 | -3.23
COc1ccc(-c2cc(C(F)(F)F)nc(SCC(=O)NCCc3ccccc3)n2)cc1OC | -2.04
Cc1cccc(N2CC(C)Cn3c2nc2c3c(=O)n(CC(=O)O)c(=O)n2C)c1 (stereo not given) | -2.26
Cc1ccc(-n2c(SCCC(C)C)nc3sc4c(c3c2=O)CC(C)(C)OC4)cc1 | -1.43
C=Cc1ccc(Cn2c(C)c(CNCCc3ccc(OCC)cc3)c(C(=O)O)c2C)cc1 | -2.21
COc1cc(NC(=O)CN2C(=O)C(c3ccc(C)cc3)=NC23CCCCCC3)cc(OC)c1 | -3.23
N#Cc1c(-c2ccccc2)cc(-c2ccccc2)nc1SCC(O)CS(=O)(=O)Cc1ccc(Cl)cc1 (stereo not given) | 0.76
CCN1CCN(c2c(S(=O)(=O)c3ccc(C)c(C)c3)cnc3cc(OC)c(OC)cc23)CC1 | -1.63
COc1cc(Cl)c(C)cc1NC(=O)c1cc2c(s1)-c1c(C)cccc1OC2 | -0.95
COc1ccc2c(c1)c(=O)c(S(=O)(=O)c1ccc(C)c(C)c1)cn2CC(=O)Nc1ccccc1 | -2.75
O=C(COc1ccc(Cl)cc1)Nc1ccc(-c2nc3cc(Cl)ccc3o2)c(O)c1 | -0.42
Cc1ccccc1SC1CCN(C(=O)NCCN(C)S(C)(=O)=O)CC1 | -1.68

Next results.
smiles | Bm FixLJ act
Cn1ccnc1NC(=O)CC1CCN(Cc2ccccc2)CC1 | 1.3
CCN(CC)C(=O)c1ccc2c(c1)N(Cc1ccc(C(F)(F)F)cc1)C(=O)c1ccccc1S2 | 1.95
COc1ccc(Cl)cc1-n1c(CCC(=O)O)ccc1-c1ccc(C)cc1 | 0.05
CC1=C(C(=O)Nc2ccc(C)cc2)C(c2ccccc2Cl)n2nnnc2N1 (stereo not given) | -0.37
CCCOc1ccc(/C=C/C(=O)Nc2sc3c(c2C(=O)OCC)CCC(C)C3)cc1OC (stereo not given) | -0.08
CCCCCN1C(C(=O)c2ccccc2)=C(NC(=O)c2ccc(C)cc2)c2ccccc2S1(=O)=O | -0.15
CCOC(=O)CCn1nc(-c2ccc(C)cc2)c2ccccc2c1=O | -1.07
COc1cccc(Cn2c(SCc3ccc(C(=O)N4CCC(C)CC4)cc3)nc3ccncc32)c1 | -2.11
CCCn1c(-c2ccc(S(=O)(=O)N3CCOCC3)cc2)csc1=Nc1ccc(OCC)cc1 | 0.35
CC(=O)Oc1ccccc1C(=O)O | -1.45&0.35
COc1cccc2c1cc1c(=O)n(CC(=O)N3CCN(c4ccc(Cl)cc4)CC3)nc(C)n12 | 1.22
CO[C@@]12CCC(O)CC1N(C(=O)c1ccc3ccccc3n1)CC2 (stereo not given in full) | 0.76

Carrying on:
smiles | Bm FixLJ act
Fc1ccc(-c2cn3cc(Cc4ccccc4)sc3n2)cc1 | -1.07
Cc1[nH]c2ccc(C(=O)N3CCCn4nc(C(O)C5CC5)cc4C3)cc2c1C (stereo not given) | -0.59
C[C@]12CCC(=O)C=C1CCC1C2[C@@H](O)C[C@@]2(C)C1CC[C@]2(O)C(=O)CO (stereo not given in full) | -1.14
O=C(c1ccccc1Br)N(Cc1ccco1)Cc1ccco1 | -1.33
Nc1nc(N)c2nc(-c3ccccc3)c(N)nc2n1 | -0.46
COc1ccc(C(=O)NCCCc2nc(C)cs2)c(OC)n1 | -0.66
COc1ccc(-c2c(C#N)c(SCC(=O)Nc3ccc(C)c(C)c3)nc(C)c2C(=O)Nc2ccccc2)cc1OC | 0.88
O=C(NCC1CCCN1)c1cnc(C23CC4CC(CC(C4)C2)C3)[nH]c1=O (stereo not given) | -0.75
Cc1ccccc1Cn1c(C)c(CNCc2ccccc2)c(C(=O)O)c1C | -1.31
COc1cc(CN2CCN(S(=O)(=O)c3ccc(F)cc3)CC2)cc(OC)c1OC | -0.63
CC(C(=O)N(C)C)N1CCC(CNC(=O)c2cnccn2)CC1 (stereo not given) | 0.68
COc1cc(O)ccc1-c1nccn1-c1ccc(OC(F)F)cc1 | -1.41

More records
smiles | Bm FixLJ act
O=C1CC(C(=O)N2CC3CCC(C2)C3NC(=O)CCCCc2ccccc2)CN1 (stereo not given) | 2.11
CCOC(=O)Cn1c(=O)oc2cc(S(=O)(=O)NCc3ccc(F)cc3)ccc21 | -1.13
CCn1c(N)nc2cc(C(=O)NCc3ccc(-n4cccn4)cc3)cnc21 | -0.81
Cc1nc(-c2cccnc2)ncc1C(=O)N1CC2CC(O)CC2C1 (stereo not given) | -0.25
CCOC(=O)c1c(C)oc2ccc(N(C(=O)c3ccncc3)S(=O)(=O)c3ccc(F)cc3C)cc12 | -0.13
Cc1ccc(CN2C(=O)N(c3ccc(F)cc3)C(=O)C2CC(=O)Nc2ccc(Cl)cc2)cc1 (stereo not given) | 0.46
CC1(C)CC(=O)c2c(oc3c(Cl)cc(NS(=O)(=O)c4ccc(Cl)cc4)cc23)C1 | -1.98
Cc1c(C(=O)N(Cc2ccco2)Cc2ccccc2Cl)oc2ccc(F)cc12 | 0.54
COc1cc(CNC(=O)CCCC/C=C/C(C)C)ccc1O | -1.71&-1.15
CN1CCN(c2ccc(NC(=O)NC(c3nccn3C)C3CC3)cc2)C1=O (stereo not given) | -0.38
Cc1ccc(C2(O)CCN(C(=O)Nc3ccc4scnc4c3)CC2)nc1 | -0.97
Cc1cccc(NC(=O)CC(=O)NCCc2nccc(-c3ccccc3)n2)c1 | -3.27

Additional results:
smiles | Bm FixLJ act
CCOC(=O)C1CCCN(C(=O)c2cc3c(=O)n(C)c4ccccc4c3s2)C1 (stereo not given) | -0.14
COc1ccccc1NC(=O)CSc1oc(-c2cccs2)nc1S(=O)(=O)c1ccccc1 | -1.54
Cc1ccc(N(CC(=O)NC(Cc2ccccc2)C(N)=O)S(C)(=O)=O)cc1 (stereo not given) | -0.82
Cc1ccc2c(CC(=O)N3CCN(c4cccc(Cl)c4)CC3)coc2c1C | -2.3
Cc1cc(C)c(Cn2c(=O)n(CCC(=O)NCCc3ccccc3)c(=O)c3ccccc32)c(C)c1 | 0.41
C[C@]12C=CC(=O)C=C1CCC1C2[C@@H](O)C[C@@]2(C)C1CC[C@]2(O)C(=O)COC(=O)CCC(=O)O (stereo not given in full) | -0.62
CCNC(=O)c1cccc(-n2ccnc2-c2cnn3c(C)cc(C)nc23)c1 | -2.1
Cc1nn2c(=O)cc(COc3ccc(/C=C(\C#N)C(=O)Nc4ccc(F)cc4)cc3)nc2s1 | -1.66
Cc1nc(C)c(CNS(=O)(=O)CCC2CCS(=O)(=O)C2)s1 (stereo not given) | 0.79
CCOc1ccc(NC(=O)c2cc3cc4ccc(C)cc4nc3o2)cc1 | -1.25
COc1ccc(NC(=O)Cn2c(=O)c3ccccc3n3nncc23)c(OC)c1 | -0.91
COc1ccc(-n2cc(-c3ccc4c(c3)OCO4)n(CC(=O)Nc3cccc(C)c3C)c2=O)c(OC)c1 | 0.43

(more compounds)
smiles | Bm FixLJ act
Cc1cccc(N2CCN(C(=O)C3CCN(S(=O)(=O)c4c(C)noc4C)CC3)CC2)c1C | -2.18
COc1ccc(OC)c(NC(=O)CSc2c3c(nc4cc(Cl)ccc24)CCCC3)c1 | -1.13
CCOC(=O)C1CCN(CCC(=O)Nc2ccc(Br)c(C)c2)CC1 | -1.98
Cc1cccc(CN2CCN(C(c3ccccc3)c3ccc(Cl)cc3)CC2)c1 (stereo not given) | -0.24
COc1ccc(OC)c(NC(=O)CCNS(=O)(=O)c2ccc3c(c2)oc(=O)n3C)c1 | -0.51
COc1ccc(-n2c(=O)c3ccc(C(=O)NCc4ccc(C)cc4)cc3n(Cc3cccc(Cl)c3)c2=O)cc1 | -0.04
Nc1nccc(N2CCC3(CC2)CC(=O)N(Cc2ccc(Cl)cc2)C3)n1 | -0.14
COc1ccc(S(=O)(=O)Cc2ccc(C(=O)N3CCN(c4cc(C)ccc4C)CC3)o2)cc1 | 0.34
CCc1ccccc1NC(=O)Cn1c(=O)n(CCc2ccccc2)c(=O)c2ccccc21 | -1.4
Fc1ccc2[nH]c(-c3cccs3)cc2c1 | 0.06
Cc1ccc(NC(=O)CSc2nnc(C)s2)c(C)c1 | -0.87
Cc1ccc(CNC(=O)c2cccc(Nc3nc4ccccc4n4nnnc34)c2)cc1 | -1.96

Next section.
smiles | Bm FixLJ act
O=C(CN1CCN(c2ncccn2)CC1)Nc1ccc(CC(=O)NC2CC2)cc1 | 0.38
CC(=O)NCc1c(I)c(NC(C)=O)c(I)c(C(=O)O)c1I | -0.1
CCn1cc(C(=O)NCCc2ccc(Cl)cc2)c(=O)c2cc(S(=O)(=O)N3CCOCC3)ccc21 | -0.04
CCc1nc(CN2CCCN(C(=O)c3cc(C)cc(F)c3)CC2)c(C)[nH]1 | -1.33
O=C(CSc1ncc(-c2ccccc2)[nH]1)Nc1ccc(F)cc1F | -1.12
Cn1c(=O)c2cc(C(=O)NC3CCCCCC3)sc2c2ccccc21 | -0.87
CCN1CCCN(S(=O)(=O)c2ccnn2C(C)C)CC1 | -0.79
Cc1csc(NC(=O)C(C)N(C)Cc2nnc(-c3ccccc3)o2)n1 (stereo not given) | -1.47
CCN(Cc1ccccc1)Cc1c(O)ccc2c(=O)c(-c3ccc(Cl)cc3)c(C(F)(F)F)oc12 | 0.39
COc1ccc(-c2cc(C(F)(F)F)nc(NCc3ccccc3)n2)cc1 | -1.88
COc1ccc(C(=O)CC2(O)C(=O)N(CCc3ccccc3)c3ccc(Br)cc32)cc1OC (stereo not given) | -0.42
COc1ccc(N2CCN(CCCNC(=O)Nc3ccccc3Cl)CC2)cc1 | -0.33
Cc1cccc(N2CCN(S(=O)(=O)c3ccc4oc(=O)c5ncn(C)c5c4c3)CC2)c1C | -1.37
CCOc1ccc(N(CC)C(=O)CCc2nc(-c3ccccc3F)no2)cc1 | -0.51

Not all compounds are listed; count on the stated rates, not on these rows.
